Polio RdRp inh: poliovirus RNA polymerase inhibition. 0.66% of 150,000 active. AID 588519. P03300. % elongation, % (compound at 16.7 µg/mL). poliovirus polymerase elongation, fluorescence polarization; active compounds read low; in the data active = % elongation below about 90%; note: some results filed as inactive read as strong as hits
Target sequence (P03300 1749-2209 limits assumed): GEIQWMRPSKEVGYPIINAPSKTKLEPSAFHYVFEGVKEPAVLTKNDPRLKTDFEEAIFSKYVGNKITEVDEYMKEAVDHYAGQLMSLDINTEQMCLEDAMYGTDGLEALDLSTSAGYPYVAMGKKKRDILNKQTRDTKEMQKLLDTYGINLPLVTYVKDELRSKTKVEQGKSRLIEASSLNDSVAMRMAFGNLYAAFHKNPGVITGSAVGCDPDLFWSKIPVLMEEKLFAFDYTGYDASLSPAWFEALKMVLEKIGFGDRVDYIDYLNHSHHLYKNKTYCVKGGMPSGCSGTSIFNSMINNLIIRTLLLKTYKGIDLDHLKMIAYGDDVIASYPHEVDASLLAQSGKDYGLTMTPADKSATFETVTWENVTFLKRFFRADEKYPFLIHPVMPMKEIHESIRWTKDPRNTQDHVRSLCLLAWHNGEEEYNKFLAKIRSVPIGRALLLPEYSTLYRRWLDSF
Polio RdRp inh intensity: further read-out of Polio RdRp inh, marked with its call; % elongation; measured here: total intensity read-out; formula for this scale not given here;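 total fluorescence in place of polarization; lower means less elongation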
Active calls of the source: *.

SMILES	Polio RdRp inh	Polio RdRp inh intensity
Cc1cccc(C)c1NC(=O)Cn1c(=O)n(Cc2ccc(C(=O)NCc3ccco3)cc2)c(=O)c2sccc21	99	102
O=C(CCS(=O)(=O)c1cc(Br)cc2c1N(C(=O)C1CC1)CC2)Nc1ccc(F)cc1	107	101
O=C1OC(C(=O)Nc2cc(C(F)(F)F)ccc2Cl)Cc2ccccc21 (stereo not given)	102	101
CCOc1ccc(NC(=O)C2Cc3ccccc3N2C(=O)c2ccccc2)cc1 (stereo not given)	103	105
O=C(Nc1ccon1)c1cccn(Cc2cccc([N+](=O)[O-])c2)c1=O	103	97
Cc1ccc(CCNC(=O)CCn2nc(-c3ccc(C)cc3)ccc2=O)cc1	113	101
Cc1ccc(S(=O)(=O)c2nnn3c2nc(NCc2ccccc2Cl)c2sccc23)cc1	104	112
CCOc1ccc(NS(=O)(=O)c2ccc3[nH]c4c(c3c2)CCCCC4)cc1	106	110
Cc1ccc(S(=O)(=O)NCCc2sc3nc(-c4ccccc4)nn3c2C)cc1C	112	116
Cc1ccc(NC(=O)CCCn2c(=O)c3cccn3c3cccnc32)cc1C	105	105
NS(=O)(=O)c1ccc(CCNC(=O)Cn2c(-c3cccs3)cc3ccccc32)cc1	117	112
CCOc1ccc(Nc2nc(N)c(C(=O)c3ccccc3Cl)s2)cc1	121	123

Some of these compounds in order of number of heavy atoms, ascending:
SMILES	Polio RdRp inh	Polio RdRp inh intensity
CCOc1ccc(Nc2nc(N)c(C(=O)c3ccccc3Cl)s2)cc1	121	123
CCOc1ccc(NS(=O)(=O)c2ccc3[nH]c4c(c3c2)CCCCC4)cc1	106	110
Cc1ccc(CCNC(=O)CCn2nc(-c3ccc(C)cc3)ccc2=O)cc1	113	101
O=C(CCS(=O)(=O)c1cc(Br)cc2c1N(C(=O)C1CC1)CC2)Nc1ccc(F)cc1	107	101

Next part.
SMILES	Polio RdRp inh	Polio RdRp inh intensity
COc1cc(NS(=O)(=O)c2cc3c(cc2C)N(C)CCO3)cc(OC)c1OC	105	106
O=C(Cn1nc2c(cc1=O)CCCC2)Nc1ccc(F)cc1F	110	98
Cc1ccc(-n2c(SCC(=O)N3CCc4ccccc43)nc3c([nH]c4ccccc43)c2=O)cc1	105	104
Cc1ccccc1OCCSc1nc(C)c(Cc2ccccc2)c(=O)[nH]1	100	91
COc1ccc2nc(C)cc(Nc3ccc(Cl)c(Cl)c3)c2c1	101	104
Cc1ccccc1OCC(=O)Nc1ccc2nc(SCCOc3ccccc3)sc2c1	113	108
Cc1cccc(Cn2c(SCc3ccc(C(=O)NCCc4ccccc4)cc3)nc3ccncc32)c1	105	106
CCn1cc(CNC(=O)c2cc(-c3ccc(C)cc3)nc3ccc(Br)cc23)c(C)n1	105	105
COc1cccc(C(=O)Nc2ccccc2C(=O)OCc2cc(=O)n3c(C)csc3n2)c1	104	110
CCOc1ccccc1NC(=O)C1CCN(S(=O)(=O)c2ccc3[nH]c4c(c3c2)CCCCC4)CC1	110	115
CCc1c(C)nc2nncn2c1NCc1ccc(OC)cc1	109	104
O=C(NCc1cccc(Cl)c1)C(=O)Nc1ccc2nc3n(c(=O)c2c1)CCCCC3	109	108
CCC(=O)Nc1ccc2nc(SCc3ccc(C)cc3)sc2c1	112	109
CC(=O)N1CCc2c(sc3c2c(=O)n(Cc2ccccc2)c(=O)n3Cc2ccccc2Cl)C1	108	109
COc1ccccc1C(=O)OCc1cc(=O)n2nc(-c3cccs3)sc2n1	106	107
COc1ccc(OC)c(NC(=O)N2CC(C)Oc3ccc(C)cc32)c1 (stereo not given)	100	106
CCN1CCN(CCCNC(=O)c2cnn(-c3ccc(C)cc3)c2C2CCN(C(=O)OC(C)(C)C)CC2)CC1	110	113
Cc1nn(CCC(=O)Nc2ccc(Cl)cc2)c(C)c1S(=O)(=O)N1CCCCC1	104	102
O=C(Nc1ccc(S(=O)(=O)N2CCCCCC2)cc1)c1cc(=O)c2ccccc2o1	111	118
Cc1cccc(C(=O)Nc2cc3nn(-c4ccc(C(C)C)cc4)nc3cc2C)c1	108	109
COc1cccc(NC(=O)CSc2nc3c([nH]c4ccccc43)c(=O)n2-c2cccc(Cl)c2)c1	105	103
CCOc1ccc(C(c2c(O)cc(C)n(Cc3ccco3)c2=O)N2CCCCC2)cc1 (stereo not given)	101	104
CCOC(=O)c1cc2c(=O)n3ccccc3nc2n(C(C)C)c1=NC(=O)c1c(-c2c(F)cccc2Cl)noc1C	105	105
Cc1cc2nn(-c3ccc(F)cc3)nc2cc1NC(=O)c1ccc(C(C)(C)C)cc1	106	110
CC(=O)N1CCC(N(CCCOC(C)C)C(=O)Nc2ccc(C)c(C)c2)CC1	111	113
Cc1cc(C)c(NC(=O)CN2C(=O)c3cccnc3Oc3ccc(Cl)cc32)c(C)c1	109	102
Cn1cc(C(=O)NCCc2ccc(Cl)cc2)c(=O)c2cc(S(=O)(=O)N3CCCCC3)ccc21	100	101
CCCn1c2ccccc2c2cnn(CC(=O)NCCCN(Cc3ccccc3)C(C)C)c(=O)c21	102	101
COc1ccccc1CNC(=O)CS(=O)Cc1nc(-c2ccc(OC)c(OC)c2)oc1C (stereo not given)	107	105
CC1=C(C(=O)Nc2ccc(Cl)cc2)C(c2ccccc2F)n2nc(SCc3cccc(Cl)c3)nc2N1 (stereo not given)	103	109
CSc1ccc(-c2nc3cccc(C)n3c2Nc2ccc(Cl)cc2)cc1	104	106
CCOC(=O)c1cc2c(=O)n3ccccc3nc2n(CC2CCCO2)c1=NC(=O)c1cccc(C(F)(F)F)c1 (stereo not given)	101	104
CC1=C(C(=O)Nc2ccccc2)C(c2cc(Br)ccc2F)n2ncc(C(=O)Nc3ccccc3)c2N1 (stereo not given)	115	106
O=C(CCNS(=O)(=O)c1ccc2c(c1)CCCC(=O)N2)Nc1cccc(Cl)c1	104	106
COc1cc(C2c3c(-c4c(C)cc(C)cc4O)n[nH]c3C(=O)N2Cc2ccco2)cc(OC)c1OC (stereo not given)	107	110
CNC(=O)C1CCC(Cn2c(=O)c3sccc3n(Cc3ccc(F)cc3)c2=O)CC1 (stereo not given)	109	113
COc1ccc2c(CNCCc3cccs3)c(C(=O)O)n(Cc3ccc(F)cc3Cl)c2c1	101	92
Cc1ccc(CN(Cc2ccco2)C(=O)c2oc3cc(Br)ccc3c2C)cc1	111	107
O=C1CS(=O)(=O)C2(C(=O)N(Cc3ccc(F)cc3)c3ccccc32)N1c1cccc(C(F)(F)F)c1 (stereo not given)	111	99
CCc1nnc2c(N3CCN(c4cc(Cl)ccc4C)CC3)nc3ccccc3n12	109	105
CCOc1ccccc1NC(=O)N1CCC2(CC1)Oc1ccccc1C(=O)N2Cc1ccccc1F	109	109
CCn1c(CN2CCC(C)CC2)nc2cc(NC(=O)c3cccc([N+](=O)[O-])c3)ccc21	102	104
Cc1ccc2c(c1)-c1onc(C(=O)N(C)c3ccc(F)cc3)c1CO2	104	107
COc1ccccc1N1CCN(S(=O)(=O)c2ccc3[nH]c4c(c3c2)CCCC4)CC1	106	111
Cc1nc2scc(C)n2c(=O)c1S(=O)(=O)Nc1ccc(N2CCOCC2)c(Cl)c1	103	105
Cc1ccc(-n2c(=O)c3ccc(C(=O)NCc4ccccc4Cl)cc3n(CC(=O)Nc3ccc(C)cc3C)c2=O)cc1	100	99
O=C(Nc1ccc2c(c1)OCCO2)c1cccn(Cc2ccccc2)c1=O	115	109
CCN(CCCNC(=O)c1ccc(Sc2ccc(C)cc2)c(NC(C)=O)c1)c1cccc(C)c1	113	111
O=C(OCC1CCCO1)c1ccc2c(c1)N(Cc1cccc(F)c1)C(=O)c1ccccc1S2(=O)=O (stereo not given)	111	114
O=C(NCc1ccco1)c1ccc2c(c1)N(Cc1c(F)cccc1Cl)C(=O)c1ccccc1S2	108	111
Cc1cc(C)cc(OC(C)C(=O)Nc2nc3c(s2)CCCC3)c1 (stereo not given)	102	107
Cc1ccc(CNC(=O)C(=O)NCC(c2ccc3c(c2)OCO3)N2CCOCC2)cc1 (stereo not given)	104	111
CCOC(=O)c1c(C)[nH]c(C)c1S(=O)(=O)N1CCCC(C(=O)NCc2ccccc2Cl)C1 (stereo not given)	103	111
O=C(NCc1ccccc1)c1nnc(Cc2cccc(F)c2)o1	110	113
O=C(Cn1c(=O)n(Cc2nc(-c3ccccc3)no2)c(=O)c2ccccc21)Nc1cccc(Cl)c1	107	109
Cc1ccc(C)c(N2CCN(C(=O)CCC(=O)Nc3ccc4nc(N5CCCCC5)cc(C)c4c3)CC2)c1	107	112
Cc1ccc(-c2nnc(Nc3ccc(Cl)cc3)c3ccccc23)cc1S(=O)(=O)NCC1CCCO1 (stereo not given)	110	110
CCCc1nn2c(=O)cc(COC(=O)c3ccccc3NC(=O)c3ccc(OCC)cc3)nc2s1	110	111
CCOC(=O)CC(NC(=O)Cn1nnc(-c2ccc(C(F)(F)F)cc2)n1)c1ccc(OC)cc1 (stereo not given)	100	100
Cc1ccc(-c2nc3c(c(SCC(=O)Nc4cccc(C(=O)O)c4)n2)Cc2cccc(C)c2O3)cc1	100	107
Next compounds follow:
SMILES	Polio RdRp inh	Polio RdRp inh intensity
COc1cccc(NC(=O)C(Cc2ccccc2)NS(=O)(=O)c2ccc3c(c2)oc(=O)n3C)c1 (stereo not given)	102	103
CCCCN(CC)CCCNC(=O)Cn1ncc2c3ccccc3n(Cc3ccc(F)cc3)c2c1=O	103	104
CCOC(=O)c1cc2c(=O)n3ccccc3nc2n(Cc2ccco2)c1=NC(=O)c1c(F)cccc1Cl	105	107
Cc1ccc(-c2nc(CS(=O)(=O)CC(=O)NC(C)CCc3ccccc3)c(C)o2)cc1 (stereo not given)	107	110
COc1ccc(OC)c(NC(=O)C(C)n2nc(C)c3c(C)n(-c4ccccc4)nc3c2=O)c1 (stereo not given)	107	107
CCOc1ccc(-c2cc3c(=O)n(CC(=O)Nc4c(C)cccc4C)ccn3n2)cc1	107	109
Cc1oc(-c2ccc(C(=O)NCc3ccccc3Cl)cc2)nc1CN1CCc2ccccc21	101	110
CC(C)Oc1ccc(CNC(=O)Nc2ccc3c(c2)N(C)C(=O)c2ccccc2S3)cc1	106	93
Cc1ccc(-n2ncc(C(=O)NC3CCCC3)c2C2CCN(C(=O)OC(C)(C)C)CC2)c(C)c1	107	107
CCCCn1c(=N)n(CCCOc2ccc(F)cc2)c2ccccc21	102	106
COc1ccc(CCN2C(=O)N(c3ccccc3)C(=O)C2CC(=O)Nc2ccccc2)cc1 (stereo not given)	110	110
Cc1nn(-c2ccccc2)c(-n2cccc2)c1C(=O)NCc1ccccc1Cl	106	104

Among those listed so far, these contain a nitro group on carbon.
SMILES	Polio RdRp inh	Polio RdRp inh intensity
O=C(Nc1ccon1)c1cccn(Cc2cccc([N+](=O)[O-])c2)c1=O	103	97
CCn1c(CN2CCC(C)CC2)nc2cc(NC(=O)c3cccc([N+](=O)[O-])c3)ccc21	102	104

The list goes on.
SMILES	Polio RdRp inh	Polio RdRp inh intensity
CCOC(=O)c1c(C)oc2ncnc(N3CCN(c4ccccc4OC)CC3)c12	101	107
CN(C)CCNC(=O)c1ccc2c(c1)NC(=O)C(CS(=O)(=O)Cc1cccc(Br)c1)N2 (stereo not given)	105	99
COc1ccc(CNC(=O)CSCc2ccc(C)cc2)c(OC)c1	114	108
CCCCCn1c(=O)[nH]c2cc(C(=O)NC(C)CC)ccc2c1=O (stereo not given)	107	110
COc1ccccc1NC(=O)c1cccc(S(=O)(=O)N2CCCCCC2)c1	103	106
CNc1ncnc2c1cnn2-c1ccc(C)c(C)c1	111	106
CCOC(=O)C1CCN(C(=O)Cn2nc(CC)n3c(cc4occc43)c2=O)CC1	104	105
Cc1ccc(C)c(CS(=O)(=O)c2cn(CC(=O)N(C(C)C)C(C)C)c3ccccc23)c1	123	121
Fc1ccc(CNc2nc3ccc(Cl)cc3n3nnnc23)cc1	114	125
CCN(CC)S(=O)(=O)c1nnc(NC(=O)c2ccc(Br)cc2)s1	109	111
CCOC(=O)c1c(C)[nH]c(C)c1S(=O)(=O)N(C)CC(=O)Nc1ccc(OC)cc1	107	111
Cc1cc(C)c(NC(=O)Nc2sc3nc4n(c(=O)c3c2C)CCC(C)CC4)c(C)c1 (stereo not given)	104	107
COc1ccc(N(Cc2nnc3n2CCCCC3)C(=O)Nc2cccc(C)c2)cc1Cl	107	117
CC(=O)N1CCc2nc3sc(C(=O)Nc4ccc(Cl)cc4F)c(N)c3c(C(F)(F)F)c2C1	102	108
Cc1ccc(SCc2nc(-c3ccc(C(=O)Nc4cc(C)ccc4C)cc3)oc2C)cc1	108	103
Cc1nc(-c2ccccc2)sc1-c1ccc(SCC(=O)Nc2ccccc2)nn1	104	111
CN(C(=O)Cn1c(=O)n(CCC(=O)NCc2ccc3c(c2)OCO3)c(=O)c2sccc21)c1ccccc1	111	113
O=C(Nc1ccccc1Cl)c1sc2cccc(Cl)c2c1Cl	100	103
O=C(Cn1c(=O)n(Cc2cccs2)c(=O)c2cccnc21)Nc1ccccc1F	105	107
Cc1ccc(CCNC(=O)c2ccc3c(c2)N(Cc2ccccc2)C(=O)c2ccccc2S3=O)cc1 (stereo not given)	102	102
O=C(Cn1c(=O)nc(-c2ccccc2)c2cc(Cl)ccc21)NCc1ccc(Cl)cc1	106	111
O=C(Nc1ccc(Cl)cc1)c1cc(S(=O)(=O)NC2CCCCCC2)ccc1F	109	112
CCOc1ccc(CCNC(=O)C2CCN(c3ncnc4c3nc3n4CCCCC3)CC2)cc1	99	95
CCOc1ccc(/C=C/c2nc(C#N)c(N3CCCCCC3)o2)cc1	104	108
COc1ccc(NS(=O)(=O)c2ccc(-n3cccn3)cc2)cc1OC	101	106

Reformatted field by field: part of the list above
canonical_smiles: CCCCn1c(=N)n(CCCOc2ccc(F)cc2)c2ccccc21
  Polio RdRp inh: 102; Polio RdRp inh intensity: 106
canonical_smiles: Cc1cc(C)c(NC(=O)CN2C(=O)c3cccnc3Oc3ccc(Cl)cc32)c(C)c1
  Polio RdRp inh: 109; Polio RdRp inh intensity: 102
canonical_smiles: COc1cccc(NC(=O)C(Cc2ccccc2)NS(=O)(=O)c2ccc3c(c2)oc(=O)n3C)c1 (stereo not given)
  Polio RdRp inh: 102; Polio RdRp inh intensity: 103

Screening data deposited in PubChem by ICCB-Longwood Screening Facility, Harvard Medical School.

This is a subset, so the mix of outcomes need not match the whole.
